Beta2AR agonist: beta2AR agonists driving receptor internalization, primary screen, cell-based, FAP fluorogen, flow cytometry. Beta-2 adrenergic receptor (Homo sapiens), P07550. Am2.2-beta2AR cells; reference of the scale not given here. response, % (concentration not given with the values). hit rate 0.43% among 340,000. AID 504454, 2011;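 active = response above a set limit, near 3 SD of response in nonfluorescent compounds, cut at about 42% in these data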;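 also: stock transfer was 100 nL into about 11 µL; a reference agonist was the positive control; negative values mostly stem from fluorescent compounds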
HNF4A DNA FP: change in binding of human HNF4A to DNA, primary screen, biochemical, fluorescence polarization, FITC-DNA; 1 h; activity change, % at 10 µM; Hepatocyte nuclear factor 4-alpha (Homo sapiens), P41235; hit rate 0.3% among 360,000; in the data active = activity change above about 30%, passing the limit was not always enough;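 also: controls were the assay level and a saturating level of protein; the project sought stronger binding though the title names inhibitors; some compounds called inactive have numbers as strong as hits; positive values seem to mean higher polarization but the record does not say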
ALR inh: inhibitors of human ALR sulfhydryl oxidase, primary screen, biochemical, H2O2 detection, HRP-luminol luminescence, single point; FAD-linked sulfhydryl oxidase ALR (Homo sapiens), P55789; purified ALR, DTT oxidation; inhibition, % (no concentration beside the values); hit rate 3.8% among 290,000; AID 485317, 2010;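 active = mean and each replicate at 75% or more; inconclusive = only one of the two met; inactive = neither met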;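 also: stock transfer was 7.5 nL into about 7.5 µL; 0% = neutral wells and 100% = wells with inactivated enzyme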
Vif A3G: inhibitors of Vif binding to APOBEC3G peptide, primary screen, biochemical, TR-FRET, GST-Vif 1-94, biotin-A3G peptide, dose response retest (AID 1117319). TR-FRET GST-Vif / biotin-A3G peptide binding; higher % means a stronger effect; test concentration not given here; strong numbers were not always called active. one-dose inhibition, %; IC50 in µM for titrated hits. Virion infectivity factor (Human immunodeficiency virus type 1 group M subtype B (isolate …. hit rate 0.57% among 260,000;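 active = above the screen mean plus three standard deviations and confirmed in dose response; inconclusive = results disagree or hit not tested in dose response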;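 also: Vif residues 1-94 fused to GST binding biotinylated APOBEC3G peptide 110-148; 0% = full assay without inhibitor and 100% = GST in place of GST-Vif; retest series ran down from 100 µM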
Calb FLC: C. albicans growth inhibition with fluconazole, primary screen, CaCi-2 strain, Alamar Blue fluorescence; C. albicans CaCi-2 (fluconazole-resistant clinical isolate) + fluconazole, 48 h; growth inhibition, % (test concentration not listed); hit rate 0.57% among 300,000; AID 1979, 2009;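 active = most replicates above 75%; inconclusive = exactly half above 75%; inactive = most below 75%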;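 also: all wells also contain fluconazole at 8 µg/ml as a sub-toxic cotreatment; 0% = median of DMSO wells and 100% = median of geldanamycin control wells; wells of about 8 µL received 7.5 nL stock; the first replicate is given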
RanGTP-Impb inh: inhibitors of RanGTP-importin-beta interaction, primary screen, biochemical, FRET, CFP-Ran, YFP-importin-beta, homogeneous; hit rate 1.1% among 300,000; Ran GTPase (GTP-bound) - importin-beta complex; inhibition, % (concentration not given with the values); cell-free CFP-Ran/YFP-importin-beta FRET ratio;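 active = most replicates above 15%; inconclusive = exactly half above 15%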;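 also: 0% = DMSO wells and 100% = Ran loaded with GDP instead of GTP; wells of about 40 µL received 100 nL stock; the first replicate is given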
LANA-H2B inh: blockers of LANA interaction with H2A/H2B – biochemical, FP readout, HTS, primary screen | inhibition, % (test concentration not listed) | Protein LANA1 (Human herpesvirus 8 type P (isolate GK18)), Q9QR71 | cell-free LANA-H2A/H2B peptide, fluorescence polarization | AID 2629, 2010 | hit rate 0.6% among 320,000; in the data active = inhibition mostly above about 10%, no sharp cut-off; inactive = mostly below about 6.7%;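 also: stock transfer was 7.5 nL into about 10 µL; 0% = median of vehicle wells and 100% = median of positive control wells; one replicate is shown; the record names a cut of 25% in any replicate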
Target sequence (Q9QR71 whole entry, looked up): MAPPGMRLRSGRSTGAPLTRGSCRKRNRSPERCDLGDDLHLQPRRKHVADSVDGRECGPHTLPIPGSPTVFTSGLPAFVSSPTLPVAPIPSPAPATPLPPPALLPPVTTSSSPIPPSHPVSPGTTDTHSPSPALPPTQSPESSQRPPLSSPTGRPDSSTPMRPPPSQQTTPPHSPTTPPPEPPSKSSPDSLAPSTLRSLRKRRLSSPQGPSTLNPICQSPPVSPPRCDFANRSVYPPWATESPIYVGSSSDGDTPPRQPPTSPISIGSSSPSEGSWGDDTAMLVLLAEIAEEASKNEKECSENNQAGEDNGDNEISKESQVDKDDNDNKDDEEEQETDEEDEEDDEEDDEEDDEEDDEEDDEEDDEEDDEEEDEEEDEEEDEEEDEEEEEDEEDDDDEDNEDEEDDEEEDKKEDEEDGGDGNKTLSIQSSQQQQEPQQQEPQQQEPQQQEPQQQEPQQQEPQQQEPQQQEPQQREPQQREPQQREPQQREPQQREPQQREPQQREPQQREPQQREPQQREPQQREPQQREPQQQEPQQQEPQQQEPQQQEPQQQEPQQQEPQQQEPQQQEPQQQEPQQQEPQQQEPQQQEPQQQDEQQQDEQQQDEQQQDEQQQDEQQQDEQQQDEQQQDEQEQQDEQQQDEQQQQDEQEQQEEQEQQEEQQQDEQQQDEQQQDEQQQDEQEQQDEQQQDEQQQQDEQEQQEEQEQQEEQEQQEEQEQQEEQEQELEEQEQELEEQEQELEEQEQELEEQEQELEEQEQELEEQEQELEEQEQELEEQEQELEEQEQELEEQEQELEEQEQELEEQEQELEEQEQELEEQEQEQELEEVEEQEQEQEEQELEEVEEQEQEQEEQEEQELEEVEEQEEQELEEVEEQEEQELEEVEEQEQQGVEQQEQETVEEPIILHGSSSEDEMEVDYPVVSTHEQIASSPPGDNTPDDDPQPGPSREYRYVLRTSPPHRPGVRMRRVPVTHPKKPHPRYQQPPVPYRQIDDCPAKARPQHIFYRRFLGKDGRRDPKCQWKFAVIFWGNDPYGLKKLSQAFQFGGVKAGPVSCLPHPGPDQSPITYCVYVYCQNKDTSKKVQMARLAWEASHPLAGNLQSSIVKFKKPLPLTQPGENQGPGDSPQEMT
* hit, by the source's call; ? = inconclusive; . = not tested or not shown; & = joins results of further samples.

SMILES | Beta2AR agonist | HNF4A DNA FP | ALR inh | Vif A3G | Calb FLC | RanGTP-Impb inh | LANA-H2B inh
COc1ccc2nc(N3C(=O)C(O)=C(C(=O)c4ccco4)C3c3ccccc3OC)sc2c1 (configuration not stated) | 12 | 0.7 | 0 | . | ? | 10 | -3.1
CC(C)(C)c1ccc(/C=N/Nc2nncn2N)cc1 | -13 | 1.4 | -21 | . | 1 | -2.9 | 2.7
CCN1CCN(Cc2ccc(NC(=O)c3ccc(C)c(NC(=O)C4=NN(c5ccccc5)C(=O)C4)c3)cc2C(F)(F)F)CC1 | -2 | 3.1&-0.6 | -1 | -2%&9% | 0 | 0.6 | -0.2
CCn1c(COc2ccccc2)nnc1SCC(=O)Nc1ccc2c(c1)OCCO2 | -6 | -0.8 | -4 | -4% | -3 | 4.1 | 7.6
O=C(CSc1ncnc2c1oc1ccccc12)NC1CCCC1 | -7 | 1.4 | 3 | . | 14 | 4.4 | -6.9
CC1CCN(CCc2nc3cc(NC(=O)C(C)C)ccc3n2C)CC1 | -10 | 2.2 | . | -2% | 6 | 1.3 | -4.4
COc1ccc(C(=O)Nc2nc(CC(=O)NCCc3ccccc3)cs2)cc1 | 2 | 1.0 | -9 | -7% | 36 | 3.5 | -0.7
CCOc1ccc2nc(NC(=O)CSc3nc4c(c(=O)n(C)c(=O)n4C)n3CC)sc2c1 | . | . | -12 | . | -7 | -1.2 | -7.3
Cc1ccc(-n2ncc3c2CC(C)(C)CC3NC(=O)CCc2ccc(=O)[nH]n2)cc1 (configuration not stated) | -3 | -6.8 | -3 | . | 10 | 1.1 | -0.8
O=c1c2ccc([N+](=O)[O-])cc2ncn1Cc1ccccc1C(F)(F)F | 6 | -0.5 | -2 | -13% | -8 | 1.6 | 0.3
Cc1cccc(NC(=O)COC(=O)Cc2c[nH]c3ccccc23)c1C | 12 | 0.2 | -4 | . | 0 | 1.2 | -0.6
Nc1c(C(=O)NCCN2CCOCC2)c2nc3ccccc3nc2n1-c1cccc(F)c1 | -18 | 2.9 | . | -3% | 7 | 78* | -2.6
Cc1ccn2cc(C(=O)N3CCN(c4cnn(-c5ccccc5)c(=O)c4Cl)CC3)nc2c1 | 4 | 0.9 | -5 | -10% | . | . | 3.2
O=C(CCSCc1cccc(F)c1)NCc1ccc(F)cc1 | 4 | 3.4 | 2 | -7% | 5 | -1.6 | -9.2
Cc1[nH]c2ccccc2c1C(=O)C(=O)Nc1ccc2c(c1)OCO2 | 1 | -0.7 | -5 | . | -1 | 0.6 | -0.2
COc1ccc(/C(O)=C2/C(=O)C(=O)N(CCCN(C)C)C2c2ccc(Cl)cc2)cc1OC (configuration not stated) | -5 | -1.2 | . | -1% | 1 | 3.1 | -1.5
O=C(c1cccc(C(F)(F)F)c1)C1CCCN(C(=O)/C=C/c2cnc[nH]2)C1 (configuration not stated) | -5 | 14 | -2 | . | -1 | -6.2 | 8.5
COc1ccc(N2CCN(C(=O)c3cn(CC4CCCCC4)nn3)CC2)cc1 | -3 | -0.9 | 42 | . | -1 | 3.3 | 1.5
Cc1noc(C)c1C(=O)NCC1COc2ccccc2O1 (configuration not stated) | 13 | -0.6 | . | . | . | . | -1.2
CCOC(=O)C1CN(c2cc3c(cc2F)c(=O)c(C(=O)O)cn3CC)OC1C(=O)OCC (configuration not stated) | 11 | 3.6 | 0 | 3%&-1% | -2 | 2.7 | -1.3
CCOC(=O)c1ccc(NC(=O)COc2ccccc2OC)cc1 | -2 | -2.3 | . | -2% | 6 | 3.9 | 9.9
CCCNc1ncnc2onc(C)c12 | 10 | -1.2 | . | . | 25 | -4.3 | 0.8
COC(=O)Cn1cnc2c(nnn2-c2ccc(OC)cc2)c1=O | -2 | -1.7 | -18 | -8% | -3 | 9.3 | -5.7
Brc1ccc(-c2nc(-c3ccccc3)no2)o1 | -1 | 3.5 | 19 | -5% | -17 | -1.7 | 4.1
Cc1nnc(SCc2nc3ccccc3nc2C)s1 | -2 | -2.4 | -6 | 5% | 1 | -2.0 | 5.7
CC(NS(=O)(=O)c1ccc(Br)cc1)C(c1cccs1)N1CCOCC1 (configuration not stated) | -1 | 2.7 | -1 | -2% | -4 | -1.3 | -0.7
CCCCC(CC)C(=O)Nc1ccc(S(=O)(=O)Nc2nccs2)cc1 (configuration not stated) | 14 | -1.9 | -3 | . | 3 | 2.5 | -8.4
CCOC(=O)C1=NNC(=O)C1 | -1 | 0.3 | . | -6% | . | . | .
CN1C(=O)/C(=C/c2cccc(Cl)c2)Sc2ccc(C(=O)NCc3cccnc3)cc21 | 8 | 2.7 | . | -4% | -2 | -3.1 | -2.9
O=C(CSc1n[nH]c(-c2cccs2)n1)N1CCOCC1 | -4 | 2.0 | 0 | -3% | . | . | 1.0
CCO[C@H]1OC(C(=O)N2CCN(C)CC2)=C[C@@H](c2coc3ccccc3c2=O)[C@@H]1CCCO | -8 | -1.2 | 3 | 4% | -1 | 3.5 | 1.6
CCOc1nc(NCCN2CCOCC2)nc(Nc2ccc([N+](=O)[O-])cc2)n1 | -7 | -0.5 | -13 | 9% | 43 | 2.4 | 6.0
Cc1ccc(C)c(NC(=O)CSc2nnc(-c3ccccc3)o2)c1 | 2 | 0.3 | . | 5% | 2 | -0.8 | 2.2
CC(C)=CCN1CCN(Cc2ccc(Oc3ncccn3)cc2)CC1CCO (configuration not stated) | 0 | 1.8 | -2 | -1% | -28 | 3.7 | -4.5
CCOC(=O)c1ccccc1NC(=O)/C=C/C(=O)O | -2 | 0.3 | 98* | . | ? | -2.1 | -4.0
Cc1cccc(CC(=O)N2CCN(C(=O)c3ccco3)CC2)c1 | -7 | -0.1 | -2 | 0% | . | . | -7.5
O=C(CN1CCOCC1)Nc1ncccn1 | 1 | 6.6 | -12 | 11% | -8 | -1.3 | -1.5
NC1=NC(=O)/C(=C/c2ccc(-c3ccc(S(N)(=O)=O)cc3)o2)S1 | 2 | -7.0 | -10 | . | -19 | -41 | 9.0
O=C(Oc1ccc(-c2cnc3ccccc3n2)cc1)c1ccc(Br)o1 | -13 | 0.4 | -1 | -6% | -10 | 0.5 | 2.8
COc1cccc(N2CC(=O)N(NC(=O)c3sc4nc(C)cc(C)c4c3N)CC2=O)c1 | -4 | 5.0 | 4 | -2% | 9 | 16* | -0.8

Quoted at random: 4 records from the list, in no set order.
SMILES | Beta2AR agonist | HNF4A DNA FP | ALR inh | Vif A3G | Calb FLC | RanGTP-Impb inh | LANA-H2B inh
CCCCC(CC)C(=O)Nc1ccc(S(=O)(=O)Nc2nccs2)cc1 (configuration not stated) | 14 | -1.9 | -3 | . | 3 | 2.5 | -8.4
CCn1c(COc2ccccc2)nnc1SCC(=O)Nc1ccc2c(c1)OCCO2 | -6 | -0.8 | -4 | -4% | -3 | 4.1 | 7.6
COc1ccc(N2CCN(C(=O)c3cn(CC4CCCCC4)nn3)CC2)cc1 | -3 | -0.9 | 42 | . | -1 | 3.3 | 1.5
CC1CCN(CCc2nc3cc(NC(=O)C(C)C)ccc3n2C)CC1 | -10 | 2.2 | . | -2% | 6 | 1.3 | -4.4

(cont.)
SMILES | Beta2AR agonist | HNF4A DNA FP | ALR inh | Vif A3G | Calb FLC | RanGTP-Impb inh | LANA-H2B inh
CCN(C(=O)CSc1nnc(-c2ccco2)n1CC)c1c(N)n(Cc2ccccc2)c(=O)[nH]c1=O | 4 | -3.3 | -2 | 0% | . | . | 6.9
Cc1cc(NC(=O)CSc2nnc(NCc3ccco3)s2)no1 | 1 | -5.7 | -3 | -11% | . | . | 6.5
CN1C(=O)/C(=C\c2ccccc2F)Sc2ccc(C(=O)NC3CCN(Cc4ccccc4)CC3)cc21 | 16 | -0.3 | 2 | . | 2 | 4.7 | -4.0
O=C1NC(NS(=O)(=O)c2ccc(Cl)cc2)(C(F)(F)F)C(=O)N1CCc1ccccc1 (configuration not stated) | . | . | . | 21% | -1 | 1.0 | -4.1
CCCn1c2ccc(F)cc2c2nnc(NN)nc21 | -11 | -4.6 | 6 | -2% | 8 | 0.7 | 0.3
O=C(NC1CCCCCCC1)C1c2ccccc2C(=O)N1Cc1cccs1 (configuration not stated) | 9 | 6.8 | -29 | -2% | -6 | ? | 8.9
Cc1ccccc1N1CCN(C2CCCN(C(=O)c3csc(C(C)C)n3)C2)CC1 (configuration not stated) | 4 | -2.0 | 24 | 4% | -6 | 3.0 | -1.2
CCN(CC)C(=O)C1CCCN(Cc2ccc(N(C)C)cc2)C1 (configuration not stated) | -3 | -0.8 | 32 | 9% | -24 | 6.2 | -0.6
CSc1ccc(S(=O)(=O)NCC(=O)OCC(=O)NC2(C#N)CCCCC2)cc1[N+](=O)[O-] | 5 | -3.0 | -5 | 4% | -6 | ? | 1.1
Cc1ccc(CNC(=O)C2CCC(=O)N2Cc2ccc(C)cc2)cc1 (configuration not stated) | -3 | 2.2 | . | -2% | 12 | -2.2 | 4.7
COc1ccc(Br)cc1/C=C\C(=O)NCc1cccnc1 | 0 | -0.1 | -17 | 2% | -7 | 0.7 | 4.5
CN(C)/C=C1\C(=O)N(C)N=C1C(F)(F)F | -7 | 0.0 | 1 | -2% | -5 | 4.5 | 0.1
O=C(Nc1ccccc1Oc1cccnc1)C1CCCN(C/C=C/c2ccc(F)cc2)C1 (configuration not stated) | -9 | -0.3 | -13 | . | 5 | 0.9 | 5.5
CC(=O)Nc1ccc(S(=O)(=O)NNC(=O)c2cc3c4ccccc4n(C)c3s2)cc1 | -1 | 3.2 | 98* | -6% | -5 | 0.5 | 0.0
COc1cc(SC)ccc1C(=O)Nc1ccc2c(c1)OCO2 | 4 | 4.4 | . | . | 15 | -2.2 | .
Cc1ccc(NC(=O)C2CCN(S(=O)(=O)c3ccccc3)CC2)cc1 | 1 | 1.2 | -2 | ? | ? | 1.1 | -0.2
C=CCC[C@H](Cc1ccc(F)cc1)C(=O)OC[C@H]1CCCN1C(=O)[C@@H](CC=C)CC(=O)NCCO | -6 | 1.5 | . | 5% | . | . | .
O=C(CCNS(=O)(=O)c1ccc(Br)cc1)NCC1CCCO1 (configuration not stated) | 0 | 1.7 | 2 | -5% | . | . | 1.8
COc1ccc(-n2c(COc3cccc4ccccc34)nnc2SCC#N)cc1 | 9 | 0.8 | -5 | . | 22 | 3.7 | -0.4
CCCCNC(=O)Nc1nc(SCC(=O)OCC)n[nH]1 | 5 | 1.1 | -4 | -3% | -10 | 1.6 | -0.8
CCOC(=O)CCCC(=O)Nc1ncnc2c1C(c1ccccc1)c1c(ccc3ccccc13)O2 (configuration not stated) | -3 | 3.0 | 0 | . | . | . | 4.9
Cc1oc(-c2ccc(Cl)cc2)nc1CN1CCC(C(=O)N2CCc3ccccc3C2)CC1 | 37 | 1.3 | -14 | 7% | 20 | -0.2 | -1.7
COc1cc(C2C(C(N)=O)=C(C)Nc3nc(CCCO)nn32)cc(OC)c1OC (configuration not stated) | -5 | 3.4 | -2 | 2% | -6 | 7.8 | -4.6
O=C(Cn1nnc(-c2ccc(CN3CCOCC3)cc2)n1)N(c1ccccc1)c1ccccc1 | 19 | 3.9 | 0 | -4% | 0 | 1.6 | -1.2

Bioassay records: PubChem BioAssay, several laboratories
